Bioassay records as filed in PubChem BioAssay.
PINK1 expr mod: PINK1 expression modulation | Potency, µM (titrated, usually from 76.6 µM), for the others: top-dose activation (PINK1 increase), usual class: activators | hit rate 0.2% among 410,000 | PINK1 immunofluorescence, high-content cytometry, 24 h; active = well fitted activation curve with a large enough effect; inconclusive = small, poorly fitted or top-dose-only effect; inactive = flat fitted curve, though single readings scatter; cell line not stated here;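 further: potency means the concentration at half of the fitted maximal effect; % of control where 0% means no effect; nearly all actives have a fitted effect of over 65% in size; a mitochondrial uncoupler was the plate control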
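Readout is PINK1 immunofluorescence, quantified alongside mitochondrial, cell and nuclear markers by laser-scanning microplate cytometry. Cells from a stable line were exposed to compound titrations (5 concentrations) for 24 hours, with CCCP controls.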
CtBP-E1A blk: CtBP/E1A binding inhibition. activity change, % (no concentration beside the values). AlphaScreen GST-E1A/His-CtBP binding, 1536-well; stronger effect = lower value; control for the full effect not named in the record. hit rate 0.49% among 340,000; in the data active means activity change below about -65%; inconclusive means about -30% to -65%; inactive means above about -30%; further: on the % scale 0 is the no-effect control and ±100 the full control effect; compound concentration not given in the record
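Protein mix (5X: 125 nM each GST-E1A, His-CtBP) was incubated with pinned compound 2 h at 37 deg C in dark, in 50 mM Tris pH 8.0 buffer with 300 mM NaCl. Glutathione donor and nickel acceptor beads followed; AlphaScreen signal read after 1 h.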
D2 agonist: activates the human D2 dopamine receptor. P14416. DiscoveRx PathHunter D2 beta-arrestin, luminescence, 90 min; 100% = 57 uM dopamine signal. activation, % (concentration not given with the values). hit rate 0.084% among 360,000; in the data active = activation above about 40%; inconclusive = about 15% to 40%; inactive = below about 15%; further: compound concentration not given in the record; the text of the record calls up to 30% inactive
Target sequence (P14416 whole entry, looked up): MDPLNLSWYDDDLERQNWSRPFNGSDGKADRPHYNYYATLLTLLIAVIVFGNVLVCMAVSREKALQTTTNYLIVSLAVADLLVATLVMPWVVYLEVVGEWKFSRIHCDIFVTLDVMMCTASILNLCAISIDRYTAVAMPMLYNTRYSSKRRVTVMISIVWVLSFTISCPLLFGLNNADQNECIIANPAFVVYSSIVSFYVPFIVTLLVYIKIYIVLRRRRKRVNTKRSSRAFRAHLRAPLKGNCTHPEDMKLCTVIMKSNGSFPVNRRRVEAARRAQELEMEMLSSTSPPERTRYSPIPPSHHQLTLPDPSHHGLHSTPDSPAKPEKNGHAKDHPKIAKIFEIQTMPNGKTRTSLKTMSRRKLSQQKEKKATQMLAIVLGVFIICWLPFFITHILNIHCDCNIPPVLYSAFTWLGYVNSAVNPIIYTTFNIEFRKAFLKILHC
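DiscoveRx PathHunter D2 beta-arrestin cells (2,100/well) attached overnight, then compound-stimulated 90 min at 37 C in HBSS/10 mM HEPES/0.1% Tween-20 buffer; beta-galactosidase complementation read by luminescence after 1 h at ambient temperature. Dopamine 57 uM final (EC100) as control.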
TRPML1 ag: agonists of human TRPML1 channel; Q9GZU1; TRPML1-expressing cells, Ca2+ dye fluorescence, FDSS; host cell line not named in the record; reference of the full effect not given here; activation, % (no concentration beside the values); hit rate 0.12% among 410,000; AID 624414; in the data active = activation above about 50%; inconclusive = about 30% to 50%; inactive = below about 30%; further: 0% is about no effect; the text of the record puts the active cut at 80%
Target sequence (Q9GZU1 whole entry, looked up): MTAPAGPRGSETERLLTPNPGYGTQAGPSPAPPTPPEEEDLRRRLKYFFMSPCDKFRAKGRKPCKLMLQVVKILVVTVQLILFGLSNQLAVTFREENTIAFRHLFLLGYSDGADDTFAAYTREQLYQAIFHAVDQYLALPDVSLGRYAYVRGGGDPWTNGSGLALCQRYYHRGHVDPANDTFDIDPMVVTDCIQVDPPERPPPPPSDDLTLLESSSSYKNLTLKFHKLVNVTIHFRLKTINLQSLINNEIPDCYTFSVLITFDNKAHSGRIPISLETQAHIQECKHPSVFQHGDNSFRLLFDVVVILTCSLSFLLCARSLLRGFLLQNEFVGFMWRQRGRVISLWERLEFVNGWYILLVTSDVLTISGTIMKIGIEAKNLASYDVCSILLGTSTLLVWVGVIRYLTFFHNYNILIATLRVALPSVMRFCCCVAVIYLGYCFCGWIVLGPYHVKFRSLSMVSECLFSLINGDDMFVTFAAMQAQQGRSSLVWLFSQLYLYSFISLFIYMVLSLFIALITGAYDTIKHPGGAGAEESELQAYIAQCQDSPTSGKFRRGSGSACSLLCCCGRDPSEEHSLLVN
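Cells: TRPML1-DL, 1X Tet inducer, ~16 h at 37 degrees C/5% CO2. Dye: ABD Ca8 no-wash + quencher, 45-90 min RT. Read: 10 s baseline, compound add, 110 s agonist phase; 54-4 EC80 (4uM final), 110 s antagonist phase.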
TRPML1 inh: human mucolipin-1 channel inhibition; hit rate 0.02% among 390,000; TRPML1-inducible cells, Ca2+ dye fluorescence, FDSS; stronger effect = lower value; inhibition of EC80 agonist-evoked calcium signal; activity change, negative = inhibition, % (concentration not given with the values); Q9GZU1; in the data active means activity change below about -50%; inconclusive means about -30% to -50%; inactive means above about -30%;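 further: stimulus is agonist 54-4 at its EC80 concentration; on the % scale 0 is the no-effect control and ±100 the full control effect; compound concentration not given in the record; the text of the record puts the active cut at -80%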
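Calcium fluorescence in TRPML1-DL cells induced overnight with Tet: a 110 s read after compound pin addition, then a 110 s antagonist read after challenge with 54-4 at 4 uM final (EC80).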
Six1-Eya2 inh: Six1/Eya2 interaction inhibition; Q15475+O00167; AlphaScreen GST-Six1/His-Eya2 binding, biochemical; stronger effect = lower value; control for the full effect not named in the record; activity change, % (concentration not given with the values); hit rate 0.56% among 360,000; in the data active = activity change below about -65%; inconclusive = about -30% to -65%; inactive = above about -30%; further: on the % scale 0 is the no-effect control and ±100 the full control effect
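AlphaScreen luminescence read after one hour at 37 °C in darkness. Pin-transferred compounds met GST-Six1 and His-Eya2 protein (5X stock 250 nM/500 nM) plus glutathione donor and Ni-chelate acceptor beads (5X, 50 ug/mL).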
Active calls of the source: *; ? = inconclusive; . = not tested or not shown; & = joins results of further samples; [ ] = remark or other dose.

SMILES	PINK1 expr mod	CtBP-E1A blk	D2 agonist	TRPML1 ag	TRPML1 inh	Six1-Eya2 inh
Cc1nc2[nH]c(=O)c3c(n2n1)NC1=C(C(=O)CC(C)(C)C1)C3c1ccccc1 (stereo not given)	2.1%[38.3 µM]	1	-0.2	-0.5	-7	3
CCCC(=O)Nc1ccc(NCc2ccc(C)s2)cc1	0.5%	.	3.9	.	.	4
Cc1sc2ncn(CC(=O)NCCc3ccccc3)c(=O)c2c1C	0.8%	-4	-0.6	1.5	6	-3
COc1cccc(-c2cc(C(=O)Nc3ccc([N+](=O)[O-])cn3)c3ccccc3n2)c1	1.5%	-17	1.9	-0.4	-2	-20
COc1ccc(NS(=O)(=O)c2ccc(C)c(C(=O)N3CCC3)c2)cc1	0.5%	3	1.4	-0.7	18	-4
COc1ccc(Cc2n[nH]c(=S)n2NC(=O)Nc2ccc(C)cc2)cc1	-0.3%	-10	3.1	1.4	-13	-1
Oc1ccccc1N1CCN(c2ccc3ccccc3n2)CC1	2.7%	0	-1.7	0.8	10	2
COc1ccc(-c2cc(C(F)(F)F)nc(SCCC(=O)Nc3cccc(OC)c3)n2)cc1	-0.8%	.	.	3.2	25	.
COc1ccc(NC(=O)CCNC(=O)Cn2cnc3ccccc3c2=O)cc1OC	4.0%	-4	-6.3	-1.4	-11	6
CCCc1c(-c2ccccc2Br)ncn1Cc1ccccc1OC	?	4	.	-0.9	.	-10
O=C(O)Cc1csc(-c2ccc(F)cc2)n1	2.9%	?	-3.0	-0.7	3	-5
COc1cc(C(=O)OC2CCN(C)CC2)cc(OC)c1OC	0.1%	4	-2.7	1.5	-11	3
CCc1ccc(C(=O)NC2CCCCC2)s1	-0.3%[38.3 µM]	5	-1.6	-0.2	5	4
Cc1ccsc1C(=O)OCC(=O)N1CCc2ccccc2C1	6.1%	-2	1.4	1.6	-8	8
C=C(CCO)C1=CCN(S(=O)(=O)C(C)(C)C)[C@@H]1CCO	0.4%	2	-1.7	-0.8	11	5
CSc1nc(N)n2nccc2n1	1.0%	11	-2.3	-0.2	.	3
O=C(CC1(c2ccc(Cl)cc2)C2CC3CC(C2)CC1C3)NCCO (stereo not given)	3.7%	3	-0.7	-0.5	10	0
CC(=O)c1ccc(N2CCN(C(C)C(=O)Nc3ccc4c(c3)OCCO4)CC2)cc1 (stereo not given)	0.1%	-18	-1.9	0.3	-5	-2
CCOC(=O)C1CCCN(CCC(=O)Nc2cc(C)cc(C)c2)C1 (stereo not given)	-0.4%	4	-6.4	-1.3	3	14
O=C(CNC(=O)c1ccc(Cl)cc1Cl)OCC(=O)N1CCCC1=O	2.5%	4	-5.2	-0.4	4	-14

The final 4 compounds of the section before come first, to join the parts.
SMILES	PINK1 expr mod	CtBP-E1A blk	D2 agonist	TRPML1 ag	TRPML1 inh	Six1-Eya2 inh
O=C(CC1(c2ccc(Cl)cc2)C2CC3CC(C2)CC1C3)NCCO (stereo not given)	3.7%	3	-0.7	-0.5	10	0
CC(=O)c1ccc(N2CCN(C(C)C(=O)Nc3ccc4c(c3)OCCO4)CC2)cc1 (stereo not given)	0.1%	-18	-1.9	0.3	-5	-2
CCOC(=O)C1CCCN(CCC(=O)Nc2cc(C)cc(C)c2)C1 (stereo not given)	-0.4%	4	-6.4	-1.3	3	14
O=C(CNC(=O)c1ccc(Cl)cc1Cl)OCC(=O)N1CCCC1=O	2.5%	4	-5.2	-0.4	4	-14
C[C@H]1CN([C@@H](C)CO)C(=O)c2cc(NC(=O)C3CCCCC3)ccc2O[C@H]1CN(C)CC1CCCCC1	-0.7%	7	0.6	0.3	35	3
Cc1c(Cl)cccc1NC(=S)N(CCN(C)C)C(C)c1ccccn1 (stereo not given)	1.9%	?	-2.0	-0.2	-1	?
COC(=O)c1ccc(OCc2cc(=O)n3ccsc3n2)cc1	0.7%	-3	-4.5	0.3	-10	0
CC(=O)c1ccc(N(CC(=O)NC2CCCC2)C(=O)CNC(=O)c2ccco2)cc1	-0.6%	-2	-5.6	-0.7	2	-17
COC(=O)C1CCN(C(=O)COC(=O)c2cc(-c3ccccc3)nc3ccc(OC)cc23)CC1	1.3%	-15	-3.2	1.0	-16	23
COCCN(Cc1ccccc1)C(=O)c1cc(S(=O)(=O)N2CCCCCC2)ccc1OC	0.6%	0	-1.7	-0.7	-7	5
CC(=O)Nc1cccc(-c2ccnc3c2CC(C)(C(=O)NCc2ccco2)O3)c1 (stereo not given)	6.4%	-10	10	-0.7	.	10
CCOC(=O)C1=CC[C@@H](c2cccc(C)c2)N(S(=O)(=O)c2ccc(C)cc2)[C@H]1C(=O)OCC	0.9%	3	-1.7	-0.5	-16	-6
O=C(NCCCc1nc2ccccc2n1Cc1cccc(Cl)c1)c1ccco1	0.4%	.	.	-0.4	-12	.
COc1ccc(/C(C)=N/OCC(=O)Nc2nc3ccccc3s2)cc1OC	7.1%	-4	1.8	1.9	3	-10
Cn1c(=O)c(=O)n(C)c2cc(S(=O)(=O)CCC(=O)Nc3ccc(F)cc3)ccc21	-0.4%&0.6%	14	-1.7	-0.3&2.1	14&-7	-2
CCCNC(=O)Nc1nc(C(N)c2ccc(OC)cc2)cs1 (stereo not given)	0.8%	?	-4.1	0.1	.	-65*
CC1CCN(S(=O)(=O)c2cccc(C(=O)N3CCN(c4ccc(F)cc4)CC3)c2)CC1	-2.3%	7	2.5	0.1	19	17
CC1CC(C)CN(C(=O)COC(=O)c2cc(S(=O)(=O)N3CCOCC3)ccc2F)C1 (stereo not given)	3.7%	-4	6.6	-0.8	12	2
C/C(CCc1ccccc1)=N\NC(=O)c1ccc(CN2CCOCC2)cc1	-0.4%	3	2.9	-0.5	-6	8
CCCCC1CC2=C(C(=O)OC(C)(C)O2)C(c2cccc3ccccc23)O1 (stereo not given)	8.1%	3	-3.7	2.0	45	1
COc1ccc(-c2cc(C(F)F)n3ncc(C(=O)Nc4c(C)n(C)n(-c5ccccc5)c4=O)c3n2)cc1	4.7%	.	0.8	0.7	0	-5
COC(=O)C(C(=O)Nc1cccc(C)n1)C1CCCCCC1 (stereo not given)	1.3%	-2	1.0	-0.1	19	13
CCN1CCC(CN2CCNC2=S)CC1	-0.7%	4	1.8	-0.5	83	4
CCCc1ccc2oc(C(=O)N3CCC(O)CC3)c(C)c2c1	-0.1%	-13	2.7	-0.2	-12	5
CCN(CCCNC(=O)CC(C(=O)N1CCc2ccccc21)n1ccnc1)c1ccccc1 (stereo not given)	5.2%[38.3 µM]	-19	-2.7	1.2	27	-23
O=C(Cn1c(=O)c2cccn2c2ccc(F)cc21)N1CCN(c2ccccc2F)CC1	5.8%	.	.	0.5	10	.
Fc1ccccc1CN1CCCCCCC1	-1.8%[38.3 µM]	5	-0.1	4.7	13	2
Cn1c(Cn2c(=O)sc3ccccc32)nnc1SCC(=O)NCc1ccc2c(c1)OCO2	-2.2%	0	0.1	1.3	-18	-4
CCOc1ccc2nc(SCC(=O)Nc3nonc3C)[nH]c2c1	-0.6%	-24	-2.8	1.6	11	-24
CC(C)c1ccc2oc(=O)cc(CN3CCN(Cc4ccccc4)CC3)c2c1	3.6%	.	-1.3	1.5	-7	-2
Cc1ccc(C(=O)NC(C)c2ccccc2)cc1Br (stereo not given)	5.3%	15	-2.0	-0.6	4	3
COc1ccc(/C=N/NC(=O)c2cccnc2)cc1CN1CCN(c2ccc(F)cc2)CC1	0.8%	-21	-2.1	-0.1	-3	-13
CCOC(=O)C1C(=O)CC(C)(O)C(C(=O)OCC)C1c1cccs1 (stereo not given)	1.2%	7	2.0	-0.5	-11	10
COc1cc2c3nnc(-c4ccc(F)cc4)c-3cn(Cc3cccc(F)c3)c2cc1OC	?	-15	-0.2	2.4	28	0
CCNC(=S)NNC(=O)c1ccccc1Cl	0.4%	9	-0.7	1.0	35	10
COC(=O)c1ccc(NC(=O)C2CCCN2C(=O)OCc2ccccc2)cc1 (stereo not given)	-0.6%	3	-8.8	-1.4	11	5
CCOC(=O)C1CCN(C(=O)c2ccc3c(c2)S(=O)(=O)c2ccccc2C3=O)CC1	3.1%	0	0.2	-0.1	-1	-2
Cc1ccc(C(=O)NCCNC(=O)COc2ccccc2Cl)cn1	-0.1%	-8	-2.7	0.6	-2	0
O=C(Nc1ccc(C(=O)O)cc1)/C(=C\c1ccccc1)NC(=O)c1ccco1	-2.2%	-2	2.8	0.2	-21	7
CCN(c1ccccc1)S(=O)(=O)c1ccc(C(=O)NCc2ccccn2)cc1	-1.4%	8	-3.0	-0.1	8	-11
CCCCN1C[C@H](CSC)[C@@H](CC(=O)Nc2ccc(Br)cc2)C1=O	0.7%	-20	-2.8	.	.	-6
CCOC(=O)C1=c2/c(=C/c3ccncc3)c(N)c(C(=O)OC)n2C(=O)C(c2ccncc2)S1 (stereo not given)	-0.2%	2	-4.4	-1.1	15	-3
Cc1cccc(C)c1NC(=O)C(NC(=O)c1ccccn1)c1ccc([N+](=O)[O-])cc1 (stereo not given)	2.0%	-4	-4.0	0.3	-4	-5
CCn1cc(CN2CCC(C(=O)Nc3ccc(Oc4ccccc4)nc3)CC2)cn1	0.9%	-14	-4.4	0.0	21	4
C[C@H](CO)N1C[C@H](C)[C@@H](CN(C)Cc2ccncc2)OCCCC[C@H](C)Oc2ccc(NC(=O)CCCN(C)C)cc2C1=O	4.0%	-4	-4.2	0.0	.	4
CC1CCc2c(sc(NC(=O)CCC(=O)O)c2C(=O)NC2CC2)C1 (stereo not given)	-0.2%	1	-5.8	7.4	2	7
CN1c2ccccc2N(C)C1c1ccc2c(c1)OCO2	-6.6%[38.3 µM]	-1	-5.1	-0.7	-11	0
Cc1ccc(NC(=O)CN(C)S(=O)(=O)c2cccc3nsnc23)cc1C	-0.9%	2	-3.3	6.3	1	-3
CC1CC(C)CN(C(=O)c2ccc3c(c2)N(Cc2ccccc2)CCS3)C1 (stereo not given)	15%	-18	0.4	2.8	37	-18
COc1ccc(NC(=O)/C=C/c2ccco2)cn1	2.9%	-13	0.1	-0.1	1	-7
Cc1cccc(C)c1N(CC(=O)N(C)Cc1ccccc1)S(C)(=O)=O	0.2%	.	-1.0	.	.	5
COc1ccc(OC)c(-c2csc(N3CCC(c4ccccc4)CC3)n2)c1	2.6%	-12	1.4	-0.2	2	2
Cc1nc(C)c(Cc2ccccc2Cl)c(=O)[nH]1	-0.4%	11	-0.3	-0.2	-5	4
CCOC(=O)c1c(C)[nH]c(C)c1C(=O)COC(=O)c1cccs1	3.4%	-3	2.6	1.6	33	-10
Cc1cccc(CCNC(=O)c2oc3c(C)c(C)ccc3c2C)n1	2.2%	.	0.5	-0.3	-8	3
O=C(N/C(=C/c1ccco1)C(=O)N1CCc2ccccc21)c1ccco1	1.9%	0	-0.9	0.0	-8	-20

Outcome played no part in choosing rows. About 1% of those tested had a hit in this group.
